Vaccinia mCherry: qHTS for Stage-Specific Inhibitors of Vaccinia Orthopoxvirus: mCherry Reporter Primary qHTS. Vaccinia virus mCherry reporter infection, fluorescence; about a quarter of the inactives have no number. Potency, µM (titrated, usually from 36.5 µM), without a hit: top-dose activity change, negative = inhibition, usual class: inhibitors. actives 0.63% (n = 310,000). AID 720579, 2013; active = well fitted inhibition curve with a large enough effect; inconclusive = small, poorly fitted or top-dose-only effect; inactive = no such curve, though single readings can be large or run the other way; tested in A549 cells; note: nearly all actives have a fitted effect of over 35% in size; inactives centre near -10
VACV Venus inh: qHTS for Stage-Specific Inhibitors of Vaccinia Orthopoxvirus: Venus Reporter Primary qHTS. Potency, µM (titrated, usually from 36.5 µM), for the others: at the highest dose activity change, negative = inhibition, actives largely listed as inhibitors. Vaccinia virus Venus reporter expression, fluorescence. actives 0.46% (n = 330,000); active means well fitted inhibition curve with a large enough effect; inconclusive means small, poorly fitted or top-dose-only effect; inactive means no such curve, though single readings can be large or run the other way; tested in A549 cells; note: nearly all actives have a fitted effect of over 30% in size; inactives centre near -10
* = called active by the depositor; i = inactive; ? = inconclusive; nt = not tested or not shown; [ ] = dose if it differs, or a comment. % is set by controls: 0 for no effect and ±100 for the full control effect; potency is the fitted concentration of half-maximal effect.

nr	smiles	Vaccinia mCherry	VACV Venus inh
1	C[C@H](NS(=O)(=O)c1ccc(Cl)cc1)C(=O)OCC(=O)Nc1cc(S(=O)(=O)N2CCOCC2)ccc1Cl	-14%	-19%
2	CCC(=O)NC(=S)Nc1ccc(NC(=O)COc2ccc([N+](=O)[O-])cc2)cc1	i	9%
3	S=C(NCCc1ccccc1)NCc1ccccc1Cl	-1%	-18%
4	COc1ccccc1CCC(=O)Nc1ccc(C)cc1Cl	-25%	-29%
5	CC(=O)Nc1ccc2c(c1)[nH]c(=O)c1ccccc12	-11%	-8%
6	CCCOc1ccccc1C1C(C(=O)OC)=CN(C(C)C)C=C1C(=O)OC	nt	-12%
7	CCN(C(=O)COC(=O)c1cc(S(=O)(=O)N(C)C)ccc1Cl)C1CCS(=O)(=O)C1 (centres undefined)	-15%	-9%
8	COc1ccc(CCNC(=O)COC(=O)c2cnc(C)cn2)cc1	nt	-13%
9	COc1ccccc1N1CCN(C(CNC(=O)c2ccco2)c2cccnc2)CC1 (centres undefined)	-9%	-13%
10	O=C(C1=C[C@@H]2[C@H]3C(=O)N(c4cccc(Cl)c4)C(=O)[C@H]3[C@@H](C(=O)c3ccc(Cl)cc3)N2C=C1)c1ccccc1	i	58%[activator]
11	C[C@@H]1CN([C@H](C)CO)C(=O)CCCn2nncc2CO[C@H]1CN(C)Cc1ccc(C(F)(F)F)cc1	i	-7%
12	Cc1ccnc(NC(=O)c2ccc(Cl)c(NC(=O)C(C)Oc3ccccc3)c2)c1 (centres undefined)	i	-14%
13	COc1ccc(C(=O)NCN2CCN(c3ccccc3)CC2)cc1OC	-26%	-14%
14	Cn1cccc1CC(=O)NNC(=O)Nc1cccc(Cl)c1	i	-8%
15	O=C(c1cccc(S(=O)(=O)Nc2ccccc2F)c1)N1CCN(c2ccccc2F)CC1	-9%	0%

nr	smiles	Vaccinia mCherry	VACV Venus inh
16	Cc1ccccc1CN1C(=O)c2ccccc2S(=O)c2ccc(C(=O)NCc3ccc(Cl)cc3)cc21 (centres undefined)	i	-13%
17	CC(C)(C#N)Cc1cc(CC(C)(C)C#N)cc(C(C)(C)C)c1	-13%	-16%
18	CCCCN(C=O)c1c(CC)nc2ccc(C(=O)NCCN(C)C)cn12	i	-4%
19	COc1ccccc1CNC(=O)CCCNC(=O)c1ccc(Cl)cc1	-4%	-2%
20	CCN(Cc1ccncc1)Cc1ccc2c(c1)CN(C(=O)c1ccc(C)cc1)CCO2	-6%	5%
21	N#Cc1cccc(-c2csc(C(O)(c3ccccc3)C(F)(F)F)n2)c1 (centres undefined)	-9%	?
22	Cc1cc(Br)cn2c(Cc3ccccc3)c(-c3cccc(Br)c3)nc12	0%	8%
23	CCC1CCc2sc(C(=O)NCc3ccccn3)cc2C1 (centres undefined)	i	0%
24	CN(Cc1ccccc1)C(=O)c1ccc2c(c1)N(Cc1ccccc1F)C(=O)c1ccccc1S2(=O)=O	-6%	-6%
25	O=C(O)c1ccccc1OCC1CCCO1 (centres undefined)	-15%	3%
26	COc1ccc(CNC(=O)Nc2cccc(Cl)c2)cc1	-11%	-14%
27	COC(=O)/C=C/C(C)=C/C=C/C(C)=C/C=C/C=C(C)/C=C/C=C(C)/C=C/C(=O)O	13%	0%
28	N#Cc1cnc(Nc2nc3ccccc3o2)nc1-c1ccccc1	i	-6%
29	Cc1[nH]c2ccccc2c1SCC(=O)N1CCCc2ccccc21	-7%	-3%
30	CC1=C(C(=O)N(C)C)CC(CC(=O)NCc2cccs2)C(=O)N1CCC1=CCCCC1 (centres undefined)	-7%	-15%

nr	smiles	Vaccinia mCherry	VACV Venus inh
31	Cc1ccc(CCNC(=O)c2cc(Nc3ccc(C)c(C)c3)nc3ccccc23)cc1	-9%	-6%
32	COc1ccc(S(=O)(=O)Nc2cc(-c3cn4cccc(C)c4n3)ccc2C)cc1C	-13%	-5%
33	CC1CCc2c(sc3nnn(Cc4ccccc4Cl)c(=O)c23)C1 (centres undefined)	-11%	-2%
34	CCC(C)Nc1nc(N)c([N+](=O)[O-])c(N2CCCCCC2)n1 (centres undefined)	?	-28%
35	Cc1ccccc1NC(=O)c1c(NC(=O)c2ccco2)sc2c1CCC(C(C)(C)C)C2 (centres undefined)	i	-8%
36	COc1cccc(CN(C)C(=O)c2ccc3c(=O)n4c(nc3c2)CCC4)c1	-25%	-22%
37	Cc1nn2c(=S)[nH]nc2[nH]c1=O	-22%	-14%
38	COc1ccc(N2C(=O)C3CCCN3C2c2cc(OC)c(OC)cc2OC)cc1 (centres undefined)	-3%	-11%
39	O=C(Oc1ccccc1)c1cc2ccccc2oc1=O	1%	-4%
40	Cc1ccc(NC(=O)Nc2ccc3c(c2)N(C)C(=O)c2ccccc2S3)c(C)c1	-23%	-21%
41	CCOC(=O)C1(CCOc2ccccc2)CCN(S(=O)(=O)N(C)C)CC1	-14%	-3%
42	CCN1CCN(C(=O)C2CCN(S(=O)(=O)c3ccc(SC)cc3)CC2)CC1	-5%	-8%
43	Cc1cc(C)n(-c2nc3c(c(=O)[nH]c(=O)n3C)n2CC(O)COc2ccccc2)n1 (centres undefined)	nt	-10%
44	CC(C)Cn1c(SCC(=O)Nc2cccc(S(N)(=O)=O)c2)nc2ccccc2c1=O	-9%	-11%
45	Cc1c(C(=O)N2CCC2)oc2ccc(Cl)cc12	i	-12%

Copied from above, compounds 37–42
nr	smiles	Vaccinia mCherry	VACV Venus inh
37	Cc1nn2c(=S)[nH]nc2[nH]c1=O	-22%	-14%
38	COc1ccc(N2C(=O)C3CCCN3C2c2cc(OC)c(OC)cc2OC)cc1 (centres undefined)	-3%	-11%
39	O=C(Oc1ccccc1)c1cc2ccccc2oc1=O	1%	-4%
40	Cc1ccc(NC(=O)Nc2ccc3c(c2)N(C)C(=O)c2ccccc2S3)c(C)c1	-23%	-21%
41	CCOC(=O)C1(CCOc2ccccc2)CCN(S(=O)(=O)N(C)C)CC1	-14%	-3%
42	CCN1CCN(C(=O)C2CCN(S(=O)(=O)c3ccc(SC)cc3)CC2)CC1	-5%	-8%

The list continues.
nr	smiles	Vaccinia mCherry	VACV Venus inh
46	COc1cccc(C#Cc2ccc3c(c2)O[C@H](CN(C)C)[C@@H](C)CN([C@@H](C)CO)S3(=O)=O)c1	i	-17%
47	Cc1ccc(C)c(-n2c(SCC(=O)O)nc3sc4c(c3c2=O)CCCC4)c1	i	-19%
48	CC(C)c1nnc(NC(=O)CCC(=O)N2CCN(Cc3ccccc3)CC2)s1	-10%	-4%
49	CCc1ccc2[nH]c(=O)c(C(c3nnnn3CC3CCCO3)N3CCN4CCCC4C3)cc2c1 (centres undefined)	-8%	-2%
50	O=C(CS(=O)c1ccccc1[N+](=O)[O-])Oc1ccc(Br)cc1 (centres undefined)	-1%	-3%
51	CCOC(=O)c1c(N)n(-c2ccc(CC)cc2)c2nc3ccccc3nc12	-13%	-5%
52	O=C(CSc1nc(NS(=O)(=O)c2ccccc2)cc(=O)[nH]1)Nc1cccc(C(F)(F)F)c1	7%	4%
53	Cc1cccc(C(=O)O/N=C(\N)c2ccc(Br)cc2)c1	-20%[1.46 µM]	-9%
54	O=C(NCCN1CCCC1)C1CCN(S(=O)(=O)N2CCC3(CC2)OCCO3)CC1	i	-8%
55	O=C(CCNC(=O)c1ccc(Br)cc1)NCCCSc1ccccc1	-3%	-13%
56	C/C=C(\C)C(=O)NCCN1C2=NC[C@H](C(C)C)N2C[C@H]1Cc1ccc(O)cc1	-4%	-10%
57	COc1cc(NC(=O)COC(=O)c2ccc(C)c(S(=O)(=O)N3CCCCC3)c2)c(C)cc1[N+](=O)[O-]	i	-12%
58	Cc1ccccc1C(=O)Nc1nnc(-c2ccc(F)cc2)o1	?	-15%
59	COc1ccc(NC(=O)C2Cc3c(-c4cccc(C(C)=O)c4)ccnc3O2)cn1 (centres undefined)	?	-25%
60	Clc1cccc[n+]1CCCC[n+]1ccccc1Cl	-11%	-24%

nr	smiles	Vaccinia mCherry	VACV Venus inh
61	COc1ccc(CCCc2nnc(SCc3nc4ccccc4c(=O)[nH]3)n2C)cc1C	i	-16%
62	O=C(CSc1nnc(-c2ccco2)n1Cc1ccccc1)OC1CCCCC1	-20%	-13%
63	CC(=O)Nc1cc2cc(NS(=O)(=O)c3ccc(Cl)cc3)ccc2oc1=O	i	-9%
64	CCn1c(=O)n(CC)c2cc(S(=O)(=O)N3CCc4ccccc43)ccc21	i	?
65	COC(=O)Cc1ccc(NC(=S)NCCCN2CCOCC2)cc1	-14%	-12%
66	CC(C)CCOC(=O)C1C2C=CC3(CN(Cc4cccs4)C(=O)C13)O2 (centres undefined)	-8%	-6%
67	COc1cccc(/C=C/C(=O)OCC(=O)c2ccc3c(c2)NC(=O)CO3)c1OC	i	-20%
68	O=P(O)(O)c1ccccc1OCc1ccccc1	nt	-30%
69	CCN(CC)C(=O)c1oc2ccc(S(=O)(=O)N3CC(C)CC(C)C3)cc2c1C (centres undefined)	-11%	-12%
70	O=C(NC(Cc1ccccc1)C(=O)O)/C(=C\c1cccc([N+](=O)[O-])c1)NC(=O)c1ccco1 (centres undefined)	-8%	-2%
71	Cc1cccc(C)c1NC(=O)C1(C)CSCC(=O)N1Cc1cccc(F)c1 (centres undefined)	-17%	7%
72	CCOC(=O)[C@@H]1[C@H]2COc3ccc(Br)cc3[C@H]2N2C(=O)N(c3ccc(C(F)(F)F)cc3)C(=O)[C@]12C	i	-14%
73	COc1cccc(NC(=O)CN2C(=O)c3cccc4cccc2c34)c1	i	-22%
74	Cc1cc(C(=O)Nc2ccc(C(=O)O)cc2)c(C)o1	-14%	-9%
75	COc1ccccc1-c1nc(S(=O)(=O)c2ccc(Cl)cc2)c(N2CCCCCC2)o1	-14%	-12%

nr	smiles	Vaccinia mCherry	VACV Venus inh
76	Cc1ccc(NC(=O)CSc2nnc(CNC(=O)c3ccco3)n2C)cc1	-11%	-7%
77	CCN1CCCC1CNC(=O)c1c(O)c2c([nH]c1=O)CCCC2 (centres undefined)	-14%	-8%
78	Oc1ccccc1-c1nc(NCc2ccccc2)c2ccccc2n1	-15%	?
79	O=C(CN1C(=O)c2ccccc2C1=O)NCc1ccc(C(=O)O)cc1	i	3%
80	O=c1c([N+](=O)[O-])c(N2CCCC2)c2ccccc2n1-c1ccccc1	-20%	-3%
81	CC(Cc1cccs1)NC(=O)Nc1ccc(Cl)cc1 (centres undefined)	-8%	-13%
82	CC(O)(c1cccc(F)c1)c1nc(-c2ccc3ccccc3c2)cs1 (centres undefined)	i	3%
83	CCOc1ccc(NS(=O)(=O)c2ccc(NS(C)(=O)=O)cc2)cc1	nt	-19%
84	CCCN1C(=O)/C(=C\C=C2\N(CC)c3ccccc3C2(C)C)SC1=S	i	128%[activator]
85	CCN(CC)C(=O)Cn1cc(S(=O)(=O)CC(=O)NCCc2ccc(OC)c(OC)c2)c2ccccc21	i	-2%
86	CC(=O)Oc1c(C)c(=O)n(C)c2ccccc12	i	-7%
87	CCOC(=O)C1CCCN(S(=O)(=O)c2ccc3c(c2)NC(=O)CO3)C1 (centres undefined)	-12%	5%
88	NS(=O)(=O)c1cccc(NC(=O)CCN2C(=O)C3CCCCC3C2=O)c1 (centres undefined)	-14%	-6%
89	O=S1(=O)N=C(N/N=C/C=C/c2ccccc2)c2ccccc21	-23%	-16%
90	C=CCc1c(C)nc(C)nc1N/N=C/c1ccccc1O	?	?

nr	smiles	Vaccinia mCherry	VACV Venus inh
91	CCOc1ccccc1N1C(=O)CC(Sc2ccccc2N)C1=O (centres undefined)	?	?
92	C=C(C)CNC(=S)Nc1cccc(S(=O)(=O)NC2=NCCC2)c1	i	-15%
93	O=[N+]([O-])c1ccc2nc(C(O)C(O)c3nc4ccc([N+](=O)[O-])cc4[nH]3)[nH]c2c1 (centres undefined)	-13%	-7%
94	Cc1cccc(NC(=O)CCC(=O)c2cccs2)n1	-8%	-2%
95	COc1ccc(CCC(=O)N(C)CC(=O)Nc2ccc(N3CCOCC3)cc2)cc1	i	4%
96	CC1CCN2c3ccccc3CC3(C(=O)OC(C)(C)OC3=O)C2C1 (centres undefined)	-14%	-6%
97	COc1cc(C(=O)NNC(=O)c2ccc(NC(C)=O)cc2)cc(OC)c1OC	i	-5%
98	Cc1ccc(C(=O)COC(=O)CNC(=O)COc2ccccc2C)cc1C	31%[activator]	-4%
99	CC(C)(C)NC(=O)c1ccccc1NC(=O)c1ccc2c(c1)OCO2	i	-18%
100	Cc1c(C(=O)NC2CCCc3ccccc32)oc2ccc(S(=O)(=O)N3CCCCC3)cc12 (centres undefined)	-10%	-13%
101	CCCCCCCCC1=NCCc2c1[nH]c1ccccc21	?	-13%
102	CCN(CC)CCCNc1oc(/C=C/c2ccc(OC)c(OC)c2)nc1C#N	-4%	-13%
103	CCCCCCCCN1C(=O)N(C)C(N(O)C(=O)NC)C1(C)C (centres undefined)	nt	-6%

By substructure, those above containing bromine
nr	smiles	Vaccinia mCherry	VACV Venus inh
22	Cc1cc(Br)cn2c(Cc3ccccc3)c(-c3cccc(Br)c3)nc12	0%	8%
50	O=C(CS(=O)c1ccccc1[N+](=O)[O-])Oc1ccc(Br)cc1 (centres undefined)	-1%	-3%
53	Cc1cccc(C(=O)O/N=C(\N)c2ccc(Br)cc2)c1	-20%[1.46 µM]	-9%
55	O=C(CCNC(=O)c1ccc(Br)cc1)NCCCSc1ccccc1	-3%	-13%
72	CCOC(=O)[C@@H]1[C@H]2COc3ccc(Br)cc3[C@H]2N2C(=O)N(c3ccc(C(F)(F)F)cc3)C(=O)[C@]12C	i	-14%
